Source: PubChem BioAssay (National Center for Advancing Translational Sciences (NCATS))
TRPML1 inh: inhibitors of human TRPML1 channel; Q9GZU1; TRPML1-inducible cells, Ca2+ dye fluorescence, FDSS; hits give low values; inhibition of EC80 agonist-evoked calcium signal; activity change, negative = inhibition, % (no concentration beside the values); 390,000 tested, 0.02% active; AID 624415; in the data active means activity change below about -50%; inconclusive means about -30% to -50%; inactive means above about -30%;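 note: stimulus is agonist 54-4 at its EC80 concentration; % is set by controls: 0 for no effect and ±100 for the full control effect; compound concentration not given in the record; the text of the record puts the active cut at -80%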
Target sequence (Q9GZU1 whole entry, looked up): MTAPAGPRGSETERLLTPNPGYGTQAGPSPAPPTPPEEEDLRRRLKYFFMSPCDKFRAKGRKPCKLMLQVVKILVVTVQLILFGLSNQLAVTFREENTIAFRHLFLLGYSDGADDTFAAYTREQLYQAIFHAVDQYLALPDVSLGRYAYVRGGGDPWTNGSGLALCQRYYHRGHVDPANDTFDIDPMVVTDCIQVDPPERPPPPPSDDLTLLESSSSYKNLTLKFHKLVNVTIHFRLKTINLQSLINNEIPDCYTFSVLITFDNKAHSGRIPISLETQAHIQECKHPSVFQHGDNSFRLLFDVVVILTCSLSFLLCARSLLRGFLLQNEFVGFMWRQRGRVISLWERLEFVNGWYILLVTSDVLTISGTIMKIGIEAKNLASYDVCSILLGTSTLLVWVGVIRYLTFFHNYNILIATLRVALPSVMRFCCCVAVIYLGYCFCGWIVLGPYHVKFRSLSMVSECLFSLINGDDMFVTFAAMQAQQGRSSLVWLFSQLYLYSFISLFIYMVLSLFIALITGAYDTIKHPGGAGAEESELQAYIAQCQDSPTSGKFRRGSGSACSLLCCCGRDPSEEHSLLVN
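TRPML1-DL cells, Tet-induced overnight (~16 h, 37 °C) at 1,500 cells/well, were loaded with Ca8 no-wash dye plus quencher for 45-90 min at room temperature. Compounds were pinned during FDSS kinetic reading; agonist 54-4 at EC80 (4 uM final) then added.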
CtBP-E1A blk: CtBP/E1A binding inhibition; AlphaScreen GST-E1A/His-CtBP binding, 1536-well; hits give low values; control for the full effect not named in the record; activity change, % (test concentration not listed); 340,000 tested, 0.49% active; AID 651724; in the data active means activity change below about -65%; inconclusive means about -30% to -65%; inactive means above about -30%; note: % is set by controls: 0 for no effect and ±100 for the full control effect; compound concentration not given in the record
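In 5 uL wells, 23 nL compound meets equimolar GST-E1A and His-CtBP (5X stock 125 nM each) for 2 h, 37 °C. Beads (5X, 50 ug/mL) then 1 h, 37 °C, dark.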
TRPML1 ag: human mucolipin-1 channel agonism; Q9GZU1; 410,000 tested, 0.12% active; activation, % (test concentration not listed); TRPML1-expressing cells, Ca2+ dye fluorescence, FDSS; host cell line not named in the record; reference of the full effect not given here; in the data active = activation above about 50%; inconclusive = about 30% to 50%; inactive = below about 30%; note: 0% is about no effect; the text of the record puts the active cut at 80%
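In this qHTS format, compounds were pin-transferred onto Ca8-dye-loaded TRPML1-DL cells induced with Tet overnight, and intracellular Ca2+ fluorescence was recorded kinetically for 110 s after a 10 s baseline. A subsequent 4uM final 54-4 (EC80) addition followed by a second 110 s read served as the antagonist phase.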
D2 agonist: activates the human D2 dopamine receptor. P14416. 360,000 tested, 0.084% active. AID 624465. DiscoveRx PathHunter D2 beta-arrestin, luminescence, 90 min; 100% = 57 uM dopamine signal. activation, % (concentration not given with the values); in the data active = activation above about 40%; inconclusive = about 15% to 40%; inactive = below about 15%; note: compound concentration not given in the record; the text of the record calls up to 30% inactive
Target sequence (P14416 whole entry, looked up): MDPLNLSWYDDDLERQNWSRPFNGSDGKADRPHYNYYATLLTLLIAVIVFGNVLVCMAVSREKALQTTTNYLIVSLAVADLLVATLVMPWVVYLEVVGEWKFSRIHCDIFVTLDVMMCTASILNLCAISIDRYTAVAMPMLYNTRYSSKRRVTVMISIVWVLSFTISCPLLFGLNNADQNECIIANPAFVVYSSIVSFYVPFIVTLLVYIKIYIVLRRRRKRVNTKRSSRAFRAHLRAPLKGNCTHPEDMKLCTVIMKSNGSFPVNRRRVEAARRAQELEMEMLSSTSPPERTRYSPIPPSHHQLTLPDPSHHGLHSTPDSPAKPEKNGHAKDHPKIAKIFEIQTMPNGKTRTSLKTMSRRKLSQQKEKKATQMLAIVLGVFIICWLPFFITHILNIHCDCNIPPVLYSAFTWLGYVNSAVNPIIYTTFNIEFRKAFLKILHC
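Agonist mode: compounds alone added to overnight-plated D2 PathHunter cells for 90 min at 37 C, with 57 uM final dopamine (EC100) defining full response. Beta-arrestin recruitment detected by chemiluminescent reagent, read after 1 h at ambient temperature.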
Six1-Eya2 inh: Six1/Eya2 interaction inhibition | Q15475+O00167 | AlphaScreen GST-Six1/His-Eya2 binding, biochemical; hits give low values; control for the full effect not named in the record | activity change, % (test concentration not listed) | 360,000 tested, 0.56% active | AID 651725; in the data active = activity change below about -65%; inconclusive = about -30% to -65%; inactive = above about -30%; note: % is set by controls: 0 for no effect and ±100 for the full control effect; compound concentration not given in the record
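Compounds are tested against tagged Six1 and Eya2 proteins bridged by glutathione donor and nickel acceptor beads; after a one-hour incubation at 37 °C without light, AlphaScreen emission is recorded.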
PINK1 expr mod: PINK1 expression modulation; 410,000 tested, 0.2% active; Potency, µM (series often up to 76.6 µM), inactives show top-dose activation (PINK1 increase), hits mostly activators; AID 624263; PINK1 immunofluorescence, high-content cytometry, 24 h; active = well fitted activation curve with a large enough effect; inconclusive = small, poorly fitted or top-dose-only effect; inactive = flat fitted curve, though single readings scatter; cell line not stated here;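 note: potency is the fitted concentration of half-maximal effect; % of control where 0% means no effect; nearly all actives have a fitted effect of over 65% in size; a mitochondrial uncoupler was the plate control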
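Decision-based qHTS: stable cells, 24 h exposure to five compound concentrations, CCCP as control. Fixed cells stained for PINK1 plus nuclear, mitochondrial and cell markers, cytometer read.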
An asterisk follows results filed as active; u = inconclusive; x = no result given; [ ] = dose if it differs, or a comment.

1) CCN1CCN(c2cc(C)c3cc(NC(=O)CCC(=O)Nc4ccc(OC)c(OC)c4)ccc3n2)CC1
2) COc1ccccc1OCCCC(=O)Nc1nnc(C2CCCO2)s1 (stereo unspecified)
3) Cc1ccccc1NC(=O)N1CCc2ccccc2C1
4) O=C(NCCCN1CCN(c2ccc(F)cc2)CC1)c1sc2ncccc2c1-n1cccc1
5) O=C(c1cccc([N+](=O)[O-])c1)N1CCCC(C(=O)N2CCCCC2)C1 (stereo unspecified)
6) [N-]=[N+]=NC(c1ccccc1)C(NC(=O)c1cc(C(F)(F)F)cc(C(F)(F)F)c1)c1ccccc1 (stereo unspecified)

assay / entry	1	2	3	4	5	6
TRPML1 inh	7.3	15.2	-10.8	-10.1	-3.3	x
CtBP-E1A blk	x	-8.4	4.2	x	x	10.0
TRPML1 ag	1.4	0.5	-0.7	-1.1	-0.6	1.9
D2 agonist	-4.6	-1.9	-1.5	x	-4.2	x
Six1-Eya2 inh	3.5	-1.3	-3.5	x	4.3	7.8
PINK1 expr mod	0.2%	0.5%	-0.6%	3.4%	2.4%	5.2%

7) O=S(=O)(NCc1cc(-c2ccccc2Cl)no1)c1ccc(Cl)cc1
8) Cc1cc(NC(=O)N(C)CCc2c(C)nn(C)c2C)ccc1Br
9) O=C1CCN(S(=O)(=O)c2ccccc2)C2CCCCC12 (stereo unspecified)
10) Cc1c(NC(=O)c2nn(C)c(=O)c3ccccc23)c(=O)n(-c2ccccc2)n1C
11) CCOC(=O)C(Cc1ccccc1)C(=O)NCc1ccccc1 (stereo unspecified)
12) CC(=O)Nc1ccc(C=NNC(=O)C2CC2)cc1

assay / entry	7	8	9	10	11	12
TRPML1 inh	13.1	-26.2	4.9	-8.7	-10.6	3.5
CtBP-E1A blk	4.6	x	0.3	10.8	-3.0	-2.1
TRPML1 ag	4.2	-1.0	0.4	-0.8	-0.4	0.9
D2 agonist	-1.9	x	-1.1	-1.6	-8.5	5.7
Six1-Eya2 inh	4.6	x	-2.1	-2.3	32.5	-2.8
PINK1 expr mod	-2.4%	0.0%	1.6%	0.4%	-1.3%	6.8%

13) O=S(=O)(c1cnc(Cl)c(Br)c1)N1CCc2ccccc21
14) Cc1cccc(NC(=O)CCCn2nc(C)c3c(C)n(-c4ccccc4)nc3c2=O)c1C
15) CCOC(=O)N1CCC(NC(=O)CCS(=O)(=O)c2ccc3c(c2)CCN3C(C)=O)CC1
16) COc1cccc(C=Nc2ccc3c(c2)CCC3)c1O
17) Cc1cc(C(=O)N2CCCc3ccccc32)no1
18) CCOC(=O)CSc1nc(NCc2ccco2)c2ccccc2n1

assay / entry	13	14	15	16	17	18
TRPML1 inh	2.9	-18.0	3.0	23.6	-1.0	12.8
CtBP-E1A blk	-6.1	x	-3.1	-13.2	9.8	-9.1
TRPML1 ag	0.8	0.2	0.1	1.0	0.2	-0.7
D2 agonist	-0.6	x	2.7	-2.1	-2.8	-2.5
Six1-Eya2 inh	-6.7	x	8.7	7.7	7.3	-4.0
PINK1 expr mod	-1.4%	0.5%	1.5%	-0.4%	-2.3%[38.3 µM]	0.7%[38.3 µM]

Of the compounds above, these contain sulfur.
2) COc1ccccc1OCCCC(=O)Nc1nnc(C2CCCO2)s1 (stereo unspecified)
4) O=C(NCCCN1CCN(c2ccc(F)cc2)CC1)c1sc2ncccc2c1-n1cccc1
7) O=S(=O)(NCc1cc(-c2ccccc2Cl)no1)c1ccc(Cl)cc1
9) O=C1CCN(S(=O)(=O)c2ccccc2)C2CCCCC12 (stereo unspecified)
13) O=S(=O)(c1cnc(Cl)c(Br)c1)N1CCc2ccccc21
15) CCOC(=O)N1CCC(NC(=O)CCS(=O)(=O)c2ccc3c(c2)CCN3C(C)=O)CC1
18) CCOC(=O)CSc1nc(NCc2ccco2)c2ccccc2n1

assay / entry	2	4	7	9	13	15	18
TRPML1 inh	15.2	-10.1	13.1	4.9	2.9	3.0	12.8
CtBP-E1A blk	-8.4	x	4.6	0.3	-6.1	-3.1	-9.1
TRPML1 ag	0.5	-1.1	4.2	0.4	0.8	0.1	-0.7
D2 agonist	-1.9	x	-1.9	-1.1	-0.6	2.7	-2.5
Six1-Eya2 inh	-1.3	x	4.6	-2.1	-6.7	8.7	-4.0
PINK1 expr mod	0.5%	3.4%	-2.4%	1.6%	-1.4%	1.5%	0.7%[38.3 µM]

Carrying on.
19) CC(CCc1ccccc1)NC(=O)CSc1cccc[n+]1[O-] (stereo unspecified)
20) CCOc1ccc(-c2cc(C(=O)NCc3ccccc3)c3c(-c4ccc(CC)cc4)[nH]nc3n2)cc1
21) CN(C)c1ccc(CN2CCCCCC2)cc1
22) CCCCN(C(=O)Cn1nnc2ccccc21)C(C(=O)NCc1ccco1)c1ccncc1 (stereo unspecified)
23) Cc1ccc(S(=O)(=O)Nc2nc(C)cc(N/N=C/c3ccc(O)cc3)n2)cc1
24) CN(C)CCCC(=O)c1ccc2c(c1)OCO2

assay / entry	19	20	21	22	23	24
TRPML1 inh	-4.4	14.1	-2.7	-8.5	-15.2	-5.6
CtBP-E1A blk	-3.2	x	28.1	3.4	x	2.8
TRPML1 ag	0.1	-0.3	0.2	-1.1	0.6	0.8
D2 agonist	0.1	x	-1.9	0.1	-2.8	-4.2
Six1-Eya2 inh	-2.2	x	8.1	3.8	-7.4	15.5
PINK1 expr mod	0.6%	2.3%	2.2%[38.3 µM]	-1.1%	-1.2%	-0.8%

25) COc1cc2nc(=S)n3[nH]c(CCn4c(C)nc5ccccc54)nc3c2cc1OC
26) COC(=O)c1ccc2nc(-c3cccc(Br)c3)c(Cc3ccccc3)n2c1
27) Cc1ccc(Cc2c(-c3ccc(F)cc3)nc3ccc(Cl)cn23)cc1
28) COCCn1c(=NC(=O)c2ccccc2[N+](=O)[O-])sc2cc(S(C)(=O)=O)ccc21
29) CCN(CC)C(=O)C1CCCN(Cc2ccc3c(c2)OCO3)C1 (stereo unspecified)
30) Oc1ccc(-c2nc3ncccn3c2Nc2ccc3c(c2)OCCO3)cc1

assay / entry	25	26	27	28	29	30
TRPML1 inh	-1.4	x	-12.5	11.7	1.9	15.4
CtBP-E1A blk	u	7.2	-1.0	-0.3	-0.9	-18.9
TRPML1 ag	-0.2	0.0	1.7	0.8	4.5	2.2
D2 agonist	1.0	x	-4.9	u	-2.9	-2.4
Six1-Eya2 inh	u	0.9	-4.3	5.5	12.7	-28.6
PINK1 expr mod	0.0%	0.9%	10.9%	5.4%	-2.2%	4.9%

31) Cc1cccc(NC(=O)Cn2c(=O)oc3cc(S(=O)(=O)NC4CCCC4)ccc32)c1
32) COc1cccc(NC(=O)CC2S/C(=N\S(=O)(=O)c3ccccc3)N(c3ccccc3)C2=O)c1 (stereo unspecified)
33) FC(F)(F)c1cccc(-c2nnc(-c3ccccc3)c(N3CCOCC3)n2)c1
34) CCCn1c(=O)c2ccccc2n2c(SCC(=O)N3CCc4ccccc4C3)nnc12
35) CC(C)(Oc1ccc(Cl)cc1)C(=O)NCCCn1ccnc1
36) COc1ccc([N+](=O)[O-])cc1NCc1ccccc1C

assay / entry	31	32	33	34	35	36
TRPML1 inh	13.5	-9.5	8.4	3.9	-4.3	-12.2
CtBP-E1A blk	x	3.1	-4.6	17.6	6.5	124.7
TRPML1 ag	-0.9	0.4	0.5	2.4	0.5	0.4
D2 agonist	x	-2.3	-6.5	-4.3	1.8	-3.3
Six1-Eya2 inh	x	-20.0	-5.2	15.0	4.0	42.7
PINK1 expr mod	0.5%	2.8%	-1.1%[38.3 µM]	1.2%	2.6%[38.3 µM]	8.6%[38.3 µM]

A second format for 2 compounds above.
no.	SMILES	TRPML1 inh	CtBP-E1A blk	TRPML1 ag	D2 agonist	Six1-Eya2 inh	PINK1 expr mod
32	COc1cccc(NC(=O)CC2S/C(=N\S(=O)(=O)c3ccccc3)N(c3ccccc3)C2=O)c1 (stereo unspecified)	-9.5	3.1	0.4	-2.3	-20.0	2.8%
33	FC(F)(F)c1cccc(-c2nnc(-c3ccccc3)c(N3CCOCC3)n2)c1	8.4	-4.6	0.5	-6.5	-5.2	-1.1%[38.3 µM]

Next records follow:
37) O=C(CCCOc1ccc(Cl)cc1Cl)N/N=C/c1ccccc1O
38) COc1ccc(-n2ncc3c(=O)n(CC(=O)NC(C)C)cnc32)cc1
39) O=C(Nc1ccc(C(=O)O)cc1)/C(=C\c1ccc([N+](=O)[O-])cc1)NC(=O)c1ccco1
40) Cc1ccccc1-n1cc(CNC(=O)C2CCC(=O)N(C3CC3)C2)cn1 (stereo unspecified)
41) CC(C)CCN1CCN(Cc2cccn2-c2cccnc2)CC1CCO (stereo unspecified)
42) O=C(NC(Cc1ccccc1)C(=O)N1CCCCCC1)c1ccccc1 (stereo unspecified)

assay / entry	37	38	39	40	41	42
TRPML1 inh	-2.1	4.6	1.2	-12.4	2.4	15.4
CtBP-E1A blk	-5.6	-6.4	7.3	-1.7	-3.6	0.7
TRPML1 ag	2.1	-0.1	-1.0	0.5	-0.8	0.0
D2 agonist	-3.5	-4.9	2.9	-5.0	-8.3	-3.6
Six1-Eya2 inh	2.1	7.3	4.2	4.5	-8.3	-2.8
PINK1 expr mod	8.7%	0.0%	-0.6%	4.0%	1.0%	-0.1%

43) COCCNc1nc(Oc2cccc3ccccc23)c2sccc2n1
44) Cc1cnc(NC(=O)CC2CCCC2)s1
45) COc1ccc(N2CCN(C(=O)COC(=O)CNC(=O)c3cccc(OC(F)F)c3)CC2)cc1
46) COc1ccc(CCCC(=O)NC2CCCCC2C)c(C)c1 (stereo unspecified)
47) CCCCCOc1ccc(/C=C/C(=O)Nc2sc(C(C)=O)c(C)c2C(=O)OCC)cc1OC
48) CC(C)N(Cc1nc(-c2ccc3c(c2)OCO3)no1)Cc1nccn1C

assay / entry	43	44	45	46	47	48
TRPML1 inh	9.8	13.3	3.4	-1.6	-10.4	-3.5
CtBP-E1A blk	1.7	2.2	18.4	2.9	x	x
TRPML1 ag	-0.8	-0.2	0.7	5.5	-1.0	0.3
D2 agonist	1.4	0.2	3.5	0.5	x	-1.6
Six1-Eya2 inh	-7.0	0.1	2.3	4.0	x	-4.3
PINK1 expr mod	1.2%	-0.8%	0.9%	3.2%[38.3 µM]	-1.3%	0.4%

49) O=C(Nc1ccc([N+](=O)[O-])cc1)c1nc[nH]c1C(=O)NC1CCCCC1
50) O=C(NNC(=O)c1ccco1)c1ccc(NS(=O)(=O)c2cccs2)cc1
51) CN1NC(=O)CC1c1ccccc1 (stereo unspecified)
52) O=C1NC2(CCC3(CC2)OCCO3)NN1c1ccccc1
53) O=C(COc1ccc(F)cc1Br)N1CCc2ccccc21
54) COC(=O)[C@@]1(C(C)C)N=C(c2cc(OC)c(OC)c(OC)c2)[C@]2(O1)C(=O)N(Cc1ccc(OC)cc1)c1ccc(Br)cc12

assay / entry	49	50	51	52	53	54
TRPML1 inh	-11.7	26.1	10.9	7.1	31.2	x
CtBP-E1A blk	-2.7	-0.5	2.6	-7.2	4.0	0.3
TRPML1 ag	0.2	0.7	-0.7	0.1	0.4	7.8
D2 agonist	-4.7	-4.3	-2.0	2.9	-2.8	x
Six1-Eya2 inh	-3.1	7.3	9.1	10.3	2.0	1.5
PINK1 expr mod	5.8%	-1.2%	0.4%	-1.4%	6.3%	-0.6%

Not a hit list; about 1% have a hit in one of these screens.
